# Screening data from PubChem BioAssay.
# Cruzain Triton: qHTS Assay for Promiscuous and Specific Inhibitors of Cruzain (with detergent); Cruzipain (Trypanosoma cruzi), P25779; purified cruzain, Z-FR-AMC fluorescence, 0.01% Triton; Potency, µM, without a hit: max response, negative = inhibition, most hits filed as inhibitors; 200,000 compounds, 0.43% hits;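 note: plate controls were neutral wells for no effect and buffer without enzyme for full effect; nearly all actives have a fitted effect of over 40% in size; top concentration of the series not given in the record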
# Target sequence (P25779 123-467 limits assumed): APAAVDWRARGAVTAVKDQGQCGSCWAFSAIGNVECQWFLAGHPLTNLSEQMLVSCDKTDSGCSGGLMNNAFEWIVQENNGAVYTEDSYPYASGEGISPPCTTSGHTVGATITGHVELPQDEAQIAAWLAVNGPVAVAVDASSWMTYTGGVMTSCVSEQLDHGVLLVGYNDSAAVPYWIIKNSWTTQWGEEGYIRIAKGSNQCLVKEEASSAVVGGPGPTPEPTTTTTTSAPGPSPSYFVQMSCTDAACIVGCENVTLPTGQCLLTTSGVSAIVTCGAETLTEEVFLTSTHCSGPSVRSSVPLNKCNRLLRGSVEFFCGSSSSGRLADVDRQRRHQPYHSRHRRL
#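 Purified cruzain (1.5 nM final) was preincubated with compounds for 15 min at room temperature in 100 mM sodium acetate pH 5.5, 5 mM DTT, 0.01% Triton X-100. Reaction started with 2 uM Z-FR-AMC; AMC fluorescence change over 60 s gave activity.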
# 2A StopGo: High Throughput Screening for Foot and Mouth Disease Virus Antivirals; human cells with a luciferase reporter of 2A StopGo recoding; control for the full effect not named in the record; Potency, µM (series often up to 57.9 µM), for the others: at the top dose signal change, negative = less light; 410,000 compounds, 1.2% hits; active = well fitted falling curve with a large enough effect; inconclusive = small, poorly fitted or top-dose-only effect; inactive = no such curve, though single readings can be large or run the other way; tested in HEK293T cells; note: % is set by controls: 0 for no effect and ±100 for the full control effect; nearly all actives have a fitted effect of over 45% in size; luciferase light after 4 h
# LASV entry inh: qHTS for Inhibitors of binding or entry into cells for Lassa Virus; Lassa virus pseudotype entry inhibition, cell reporter; control for the full effect not named in the record; Potency, µM (titrated, usually from 37.9 µM), for the others: at the top dose activity change, negative = inhibition, actives largely listed as inhibitors; 300,000 compounds, 1.2% hits; AID 540256, 2011; active means well fitted inhibition curve with a large enough effect; inconclusive means small, poorly fitted or top-dose-only effect, or effect the other way; inactive means flat fitted curve, though single readings scatter; tested in HEK293 cells; note: % is set by controls: 0 for no effect and ±100 for the full control effect; nearly all actives have a fitted effect of over 50% in size; luciferase read-out
# Cruzain noTriton: qHTS Assay for Promiscuous and Specific Inhibitors of Cruzain (without detergent); Cruzipain (Trypanosoma cruzi), P25779; purified cruzain, Z-FR-AMC fluorescence, no detergent; Potency, µM, without a hit: max response, negative = inhibition, hits mostly inhibitors; 200,000 compounds, 2.3% hits;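 note: plate controls were enzyme without inhibitor for no effect and buffer without enzyme for full effect; nearly all actives have a fitted effect of over 40% in size; top concentration of the series not given in the record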
#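 Detergent-free condition (0.00005% Triton X-100) in acetate buffer pH 5.5 with DTT. 1.5 nM enzyme and compound were pre-mixed 15 min, then 2 uM Z-FR-AMC substrate added; reaction progress from fluorescence change between first and third reads (60 s).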
# SARS PLP yeast: qHTS of Yeast-based Assay for SARS-CoV PLP; S. cerevisiae expressing SARS-CoV PLpro, growth rescue; control for the full effect not named in the record; Potency, µM (top dose mostly 32.9 µM), without a hit: at the top dose activity, positive = growth rescue; 330,000 compounds, 0.19% hits; AID 485353, 2010; active means well fitted rising curve with a large enough effect; inconclusive means small, poorly fitted or top-dose-only effect; inactive means no such curve, though single readings can be large or run the other way; note: 0% is about no effect; nearly all actives have a fitted effect of over 55% in size; growth read by luminescence after 48 h
# NS1 inh: qHTS Assay for Inhibitors of Influenza NS1 Protein Function; 270,000 compounds, 0.4% hits; S. cerevisiae slowed by influenza A NS1, growth recovery by OD600; Potency, µM (titrated, usually from 46.1 µM), for the others: top-dose activity, positive = more growth; active means well fitted rising curve with a large enough effect; inconclusive means small, poorly fitted or top-dose-only effect; inactive means no such curve, though single readings can be large or run the other way; note: nearly all actives have a fitted effect of over 50% in size
#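 A cell-based growth assay was used: compounds that relieve NS1-induced slow growth of budding yeast raise OD600. Assay medium was yeast nitrogen base with ammonium sulphate and -URA supplement, pH 6.0, with 2% galactose.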
# RE007 growth inh: qHTS Assay for Inhibitors of the HIV-1 protein Vpr | Potency, µM (titrated, usually from 92.2 µM), without a hit: at the highest dose activity change, negative = less growth | S. pombe RE007 Vpr strain, BacTiter-Glo ATP luminescence, 24 h; control for the full effect not named in the record | 360,000 compounds, 0.21% hits; active = well fitted falling curve with a large enough effect; inconclusive = small, poorly fitted or top-dose-only effect; inactive = no such curve, though single readings can be large or run the other way;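 note: % is set by controls: 0 for no effect and ±100 for the full control effect; nearly all actives have a fitted effect of over 50% in size; the assay follows cell death caused by Vpr and the record does not say whether a fall means rescue or toxicity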
#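 Fission yeast RE007 carrying one integrated HIV-1 vpr copy, seeded at OD 0.01 in PMG+AL medium with 23 nL pinned compound. Grown 24 h at 30 degrees; viability read by BacTiter-Glo luminescence after 5 min.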
# Marburg entry inh: qHTS for inhibitors of binding or entry into cells for Marburg Virus; Marburg virus pseudotyped entry inhibition, cell reporter; control for the full effect not named in the record; about a third of the inactives were read at about 46 µM; Potency, µM (series often up to 37.8 µM), without a hit: at the highest dose activity change, negative = inhibition, most hits filed as inhibitors; 300,000 compounds, 1.8% hits; active = well fitted inhibition curve with a large enough effect; inconclusive = small, poorly fitted or top-dose-only effect, or effect the other way; inactive = flat fitted curve, though single readings scatter; tested in HEK293 cells; about a fifth of its hits are not listed in these tables; note: % is set by controls: 0 for no effect and ±100 for the full control effect; luciferase read-out
# Numbers without * were called inactive; ? = inconclusive; · = not tested or not shown; [ ] = dose if it differs, or a comment. Unless noted, calls come from the whole dose curve; as a rule, active = well fitted curve in the direction sought with a large enough effect; inconclusive = small, poorly fitted or top-dose-only effect, or another doubt; inactive = no such curve, though single readings can be large; an effect the other way counts as inactive or inconclusive. Potency is the fitted concentration of half-maximal effect. This is a random part of the collection. Share with any hit: about 4.7%.
# Order of results – Cruzain Triton	2A StopGo	LASV entry inh	Cruzain noTriton	SARS PLP yeast	NS1 inh	RE007 growth inh	Marburg entry inh
CCOC(=O)C1(C)C=C(Nc2ccc(OC)cc2)C(=O)N1c1ccc(OC)cc1 (configuration not stated)
  6.4%	-23%	26%	16µM*	4%	4%	14%	24%
C=CCC(C#Cc1ccccc1)[N+](C)(C)CC=C (configuration not stated)
  2.0%	0%	1%	-1%	7%	1%	-5%	28%
O=C(CCNC(=O)N1CC(=O)Nc2ccccc21)Nc1ccc(Br)cc1F
  ·	-6%	·	·	1%	0%	-8%	·
CC(=O)c1ccc(NC(=O)CCc2nc(-c3ccc(C)cc3)no2)cc1
  -6.5%	-18%	-6%[46.1 µM]	-13%	·	·	·	3%[46.1 µM]
CC(=O)N/C(N)=N/c1nc2cc(C)ccc2o1
  ·	51%[activator]	·	·	0%	4%	3%	·
COc1ccc(S(=O)(=O)N2CCN(C/C=C/c3ccccc3)CC2)cc1F
  ·	-11%	-14%	·	1%	-6%	1%	?
CCOC(=O)c1c(C)[nH]c(CCC(=O)Nc2ccc(N(CC)CC)cc2C)c1C
  1.5%	-19%	?	-1%	·	·	·	·
CC(=O)c1ccc(OCc2cc(C(=O)N(C)C(C)c3ccon3)no2)cc1 (configuration not stated)
  ·	-20%	-20%	·	·	·	-6%	-1%
Cc1cc(=O)oc2ccc(OCC(=O)NCc3ccco3)cc12
  -2.3%	-3%	8%	-12%	5%	-2%	-4%[3.69 µM]	-13%
CCOc1ccc(S(=O)(=O)N2CCN(C(=O)c3cc(C4CC4)nn3-c3ccccc3)CC2)cc1
  ·	?	-28%[46.1 µM]	·	2%	·	-2%	?
Cc1cccc(C(=O)Nc2cccc(C(=O)N/N=C/c3ccc4c(c3)OCO4)c2)c1
  ·	33%[activator]	-16%	·	0%	-4%	13%	?
Cc1cc(C)c[n+](C2=C([O-])c3ccccc3C(=O)/C2=N\S(=O)(=O)c2cccs2)c1
  -2.6%	40µM*	·	1%	2%	2%	-9%	·
O=S(=O)(NCc1ccccn1)c1cccc2nsnc12
  -0.3%	10%	-13%	4%	-7%	6%	-6%	9%[46.1 µM]
N#CCC(=O)Nc1ccc(C(=O)OCC(=O)N(Cc2ccccc2)C2CCS(=O)(=O)C2)cc1 (configuration not stated)
  ·	-15%	·	·	-5%	8%	2%	·
COc1ccc(N(C)C(=O)C2CCCN2S(=O)(=O)c2cccc3nsnc23)cc1 (configuration not stated)
  ·	-6%	·	·	4%	0%	-1%	·
O=C(Cn1cnc2ccccc2c1=O)NCC(=O)N1CCN(Cc2ccc3c(c2)OCO3)CC1
  2.4%	-12%	8%	-1%	1%	1%	21%	8%
COc1ccc(CSc2nnnn2C)cc1[N+](=O)[O-]
  -2.0%	-12%	3%	1%	-1%	5%	-2%	8%
Cc1cc(CN(C)C(=O)c2cc(COc3ccc(F)cc3Cl)on2)n[nH]1
  ·	32%[activator]	?	·	-1%	2%	-2%	?
Cc1ccc(NC(=O)NC2CCCCCCC2)cc1
  ·	66%[activator]	·	·	2%	4%	15%	·
COc1cc(NC(=O)C(C)Oc2ccccc2)c(C(=O)O)cc1OC (configuration not stated)
  1.6%	5%	4%	-6%	0%	7%	-1%	7%
COC(CNC(=O)CN1C(=O)COc2ccc(S(=O)(=O)N3CCOCC3)cc21)OC
  ·	22%	·	·	3%	7%	-6%	·
O=C1OCCN1C(=O)[C@H]1[C@H](c2ccccc2)C(c2cccc(Cl)c2)=NN1c1ccc(Br)cc1
  0.5%	-22%	·	13µM*	-4%	·	2%	·
O=C(O)CNC(=O)c1ccc(NC(=O)/C(=C/c2ccccc2)NC(=O)c2ccco2)cc1
  ·	28%	?	·	-3%	-3%	3%	?
CCOc1ccc(NC(=O)CCc2nc3cccnc3n2Cc2ccc(OC)cc2)cc1
  1.7%	-31%	0%[46.1 µM]	-9%	·	·	·	-1%[46.1 µM]
O=C(NCCc1cccs1)C1CC(c2ccccc2[N+](=O)[O-])=NO1 (configuration not stated)
  -1.6%	71%[activator]	·	-10%	1%	1%	-6%	·
Cc1cc(C(=O)Oc2cccnc2)ccc1[N+](=O)[O-]
  -5.0%	-9%	14%	-7%	1%	-12%	?	?
CCOc1ccc(NS(=O)(=O)c2ccc(OC)c(NC(=O)c3ccc4c(c3)OCCO4)c2)cc1
  -4.5%	78%[activator]	?	-20%	21%	24%	7%	-14%
O=C(NCCN1CCOCC1)c1cc(Cl)ccc1Cl
  ·	-10%	·	·	6%	0%	-5%	·
C=CCN1CCN(C(c2ccc(Cl)cc2)c2nnnn2CCc2ccc(OC)c(OC)c2)CC1 (configuration not stated)
  3.6%	-5%	-9%	-1%	3%	4%	21%	-17%[46.1 µM]
CCOC(=O)C1CCN(C(=O)Nc2ccc3c(c2)nc(C)n3C)CC1
  3.5%	0%	-14%	-3%	7%	-21%	6%	15%
COc1ccc(CNC(=O)c2cc(SC)ccc2Cl)cc1OC
  ·	?	-5%	·	-1%	-7%	15%	-16%
Cc1nc(C)c(-c2csc(Nc3cccc(O)c3)n2)s1
  ·	32%[activator]	-16%	·	0%	4%	22%	?
CC(=O)c1ccc(N2CCN(C(=O)CCc3ccccc3)CC2)cc1
  ·	0%	-27%	·	-4%	-2%	10%	28%
O=C(Nc1cccc(S(=O)(=O)N2CCCCC2)c1)c1cnccn1
  ·	?	?	·	1%	·	10%	6%[46.1 µM]
C=CCN(C(=O)CN1CCCCC1)c1nc(-c2ccccc2)cs1
  ·	0%	-4%	·	?	3%	-24%	3%[46.1 µM]
CC(C)Oc1ccc(C(=O)Nc2nnc(C3=COCCO3)o2)cc1
  ·	10%	-12%	·	-3%	·	-23%	-20%
COc1cc(OC)cc(C(=O)NCC2CCCN(Cc3cccc(C(C)=O)c3)C2)c1 (configuration not stated)
  ·	-3%	·	·	1%	-5%	-6%	·
C/C(=N\NC(=O)c1cccc(O)c1)c1ccc(NC(=O)Cc2ccccc2)cc1
  ·	3%	9%	·	0%	-2%	-28%	?
CCn1cc(C(=O)NCc2ccccc2OC)c(=O)c2cc(S(=O)(=O)N(C)C)ccc21
  -3.8%	-12%	·	?	2%	-13%	-12%	·
O=C(NC(=S)Nc1ccc(N2CCCCC2)c(Cl)c1)c1ccc2c(c1)OCCO2
  -0.9%	?	?	25µM*	-1%	13%	-12%	1.4µM*
Nc1c(C(=O)Nc2ccccc2)sc2nc(-c3ccco3)ccc12
  -17%	?	?	-21%	-2%	4%	-5%	?
CCOC(=O)c1ccc(Oc2cc(C)nc(SC)n2)cc1
  -0.2%	-11%	-20%	1%	-11%	-12%	5%	?
CCOC(=O)/C(=C\c1ccc(N2CCC(c3ccccc3)=N2)cc1)C(C)=O
  ·	14%	7.9µM*	·	·	·	-11%	2.8µM*
CCOc1ccccc1N(CC(=O)NCCSc1ccccn1)S(=O)(=O)c1ccccc1
  ·	0%	·	·	1%	-26%	2%	-24%[46.1 µM]
O=C(CSc1nc2sc3c(c2c(=O)n1-c1ccccc1)CCCC3)N/N=C/c1ccccc1C(=O)O
  ·	0%	?	·	1%	26%	10%	2%[46.1 µM]
O=C(CCSc1ccccc1)NCCSCc1ccco1
  0.1%	2%	-1%	-12%	-21%	-10%	-2%	-24%
N#CC1(C#N)C2=C(CCCC2)NC(c2ccccc2)C1(C#N)C#N (configuration not stated)
  -9.5%	·	·	-7%	3%	4%	·	·
CN(C)S(=O)(=O)c1ccc(C(=O)OCC(=O)Nc2sc3c(c2C#N)CCCCC3)cc1
  -5.4%	35%[activator]	1%	-20%	7%	6%	-8%	?
O=C(CCCCCn1c(=S)[nH]c2ccc(N3CCOCC3)cc2c1=O)NCc1cccc(Cl)c1
  ·	-1%	-26%	·	3%	·	2%	?
O=C(CCCN1C(=O)/C(=C\c2ccccc2)SC1=S)Nc1ccc(O)cc1C(=O)O
  ·	-7%	·	·	9%	7%	10%	·

# Full records as entered above. Screens in order: Cruzain Triton, 2A StopGo, LASV entry inh, Cruzain noTriton, SARS PLP yeast, NS1 inh, RE007 growth inh, Marburg entry inh
# Nc1c(C(=O)Nc2ccccc2)sc2nc(-c3ccco3)ccc12 across the screens: -17%, ?, ?, -21%, -2%, 4%, -5%, ?
# O=C(CSc1nc2sc3c(c2c(=O)n1-c1ccccc1)CCCC3)N/N=C/c1ccccc1C(=O)O across the screens: ·, 0%, ?, ·, 1%, 26%, 10%, 2%[46.1 µM]

# Reprinted at random: 6 compounds from above, in no set order.
# Order of results – Cruzain Triton	2A StopGo	LASV entry inh	Cruzain noTriton	SARS PLP yeast	NS1 inh	RE007 growth inh	Marburg entry inh
Nc1c(C(=O)Nc2ccccc2)sc2nc(-c3ccco3)ccc12
  -17%	?	?	-21%	-2%	4%	-5%	?
CCOC(=O)c1ccc(Oc2cc(C)nc(SC)n2)cc1
  -0.2%	-11%	-20%	1%	-11%	-12%	5%	?
O=C(CCSc1ccccc1)NCCSCc1ccco1
  0.1%	2%	-1%	-12%	-21%	-10%	-2%	-24%
C=CCN(C(=O)CN1CCCCC1)c1nc(-c2ccccc2)cs1
  ·	0%	-4%	·	?	3%	-24%	3%[46.1 µM]
CC(C)Oc1ccc(C(=O)Nc2nnc(C3=COCCO3)o2)cc1
  ·	10%	-12%	·	-3%	·	-23%	-20%
C/C(=N\NC(=O)c1cccc(O)c1)c1ccc(NC(=O)Cc2ccccc2)cc1
  ·	3%	9%	·	0%	-2%	-28%	?
